# Bioassay records (PubChem)
# 2A StopGo: FMDV 2A StopGo reporter, luciferase signal; human cells with a luciferase reporter of 2A StopGo recoding; control for the full effect not named in the record; Potency, µM (series often up to 57.9 µM), for the others: top-dose signal change, negative = less light; 1.2% of 410,000 active; AID 1159524; active = well fitted falling curve with a large enough effect; inconclusive = small, poorly fitted or top-dose-only effect; inactive = no such curve, though single readings can be large or run the other way; tested in HEK293T cells; also: % is scaled to controls: 0 for no effect and ±100 for the full control effect; nearly all actives have a fitted effect of over 45% in size; luciferase light after 4 h
# SARS PLP yeast: inhibitors of SARS-CoV papain-like protease in yeast; Potency, µM (highest dose often 32.9 µM), for the others: at the highest dose activity, positive = growth rescue; 0.19% of 330,000 active; S. cerevisiae expressing SARS-CoV PLpro, growth rescue; control for the full effect not named in the record; AID 485353; active means well fitted rising curve with a large enough effect; inconclusive means small, poorly fitted or top-dose-only effect; inactive means no such curve, though single readings can be large or run the other way; also: 0% is about no effect; nearly all actives have a fitted effect of over 55% in size; growth read by luminescence after 48 h
# RE007 growth inh: less growth of the S. pombe RE007 Vpr strain; 0.21% of 360,000 active; S. pombe RE007 Vpr strain, BacTiter-Glo ATP luminescence, 24 h; control for the full effect not named in the record; Potency, µM (series often up to 92.2 µM), inactives show at the highest dose activity change, negative = less growth; AID 651644; active = well fitted falling curve with a large enough effect; inconclusive = small, poorly fitted or top-dose-only effect; inactive = no such curve, though single readings can be large or run the other way;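 also: % is scaled to controls: 0 for no effect and ±100 for the full control effect; nearly all actives have a fitted effect of over 50% in size; the assay follows cell death caused by Vpr and the record does not say whether a fall means rescue or toxicity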
#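 Fission yeast RE007 carrying one integrated HIV-1 vpr copy, seeded at OD 0.01 in PMG+AL medium with 23 nL pinned compound. Grown 24 h at 30 degrees; viability read by BacTiter-Glo luminescence after 5 min.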
# Lassa entry inh: blocks Lassa virus binding to or entry into cells. 1.2% of 300,000 active. Potency, µM (highest dose often 37.9 µM), inactives show at the highest dose activity change, negative = inhibition, actives largely listed as inhibitors. Lassa virus pseudotype entry inhibition, cell reporter; control for the full effect not named in the record; active means well fitted inhibition curve with a large enough effect; inconclusive means small, poorly fitted or top-dose-only effect, or effect the other way; inactive means flat fitted curve, though single readings scatter; tested in HEK293 cells; also: % is scaled to controls: 0 for no effect and ±100 for the full control effect; nearly all actives have a fitted effect of over 50% in size; luciferase read-out
# MARV entry inh: inhibitors of Marburg virus binding or cell entry. Marburg virus pseudotyped entry inhibition, cell reporter; control for the full effect not named in the record; about a third of the inactives were read at about 46 µM. Potency, µM (top dose mostly 37.8 µM), inactives show at the top dose activity change, negative = inhibition, actives largely listed as inhibitors. 1.8% of 300,000 active. AID 540276; active = well fitted inhibition curve with a large enough effect; inconclusive = small, poorly fitted or top-dose-only effect, or effect the other way; inactive = flat fitted curve, though single readings scatter; tested in HEK293 cells; about a fifth of its hits are not listed in these tables; also: % is scaled to controls: 0 for no effect and ±100 for the full control effect; luciferase read-out
# Cruzain inh Det: blocks cruzain activity in presence of Triton detergent. AID 1478. Potency, µM, for inactives: max response, negative = inhibition, usual class: inhibitors. purified cruzain, Z-FR-AMC fluorescence, 0.01% Triton. 0.43% of 200,000 active;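 also: plate controls were neutral wells for no effect and buffer without enzyme for full effect; nearly all actives have a fitted effect of over 40% in size; top concentration of the series not given in the record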
# Target sequence (P25779 123-467 limits assumed): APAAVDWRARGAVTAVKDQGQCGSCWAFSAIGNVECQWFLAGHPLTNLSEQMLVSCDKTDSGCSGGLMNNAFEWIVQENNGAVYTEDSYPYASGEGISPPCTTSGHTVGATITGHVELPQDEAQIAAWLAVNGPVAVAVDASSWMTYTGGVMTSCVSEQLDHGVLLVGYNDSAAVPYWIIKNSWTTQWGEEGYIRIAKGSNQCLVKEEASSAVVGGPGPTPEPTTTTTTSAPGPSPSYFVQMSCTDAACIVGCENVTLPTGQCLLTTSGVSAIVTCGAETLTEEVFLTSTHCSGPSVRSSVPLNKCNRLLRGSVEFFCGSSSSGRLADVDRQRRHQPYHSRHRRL
#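 Purified cruzain (1.5 nM final) was preincubated with compounds for 15 min at room temperature in 100 mM sodium acetate pH 5.5, 5 mM DTT, 0.01% Triton X-100. Reaction started with 2 uM Z-FR-AMC; AMC fluorescence change over 60 s gave activity.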
# NS1 inh: inhibitors of influenza NS1 protein function. AID 2326. Potency, µM (series often up to 46.1 µM), inactives show top-dose activity, positive = more growth. S. cerevisiae slowed by influenza A NS1, growth recovery by OD600. 0.4% of 270,000 active; active means well fitted rising curve with a large enough effect; inconclusive means small, poorly fitted or top-dose-only effect; inactive means no such curve, though single readings can be large or run the other way; also: nearly all actives have a fitted effect of over 50% in size
#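 A cell-based growth assay was used: compounds that relieve NS1-induced slow growth of budding yeast raise OD600. Assay medium was yeast nitrogen base with ammonium sulphate and -URA supplement, pH 6.0, with 2% galactose.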
# Cruzain inh noDet: inhibitors of Trypanosoma cruzi cruzain without detergent. P25779. purified cruzain, Z-FR-AMC fluorescence, no detergent. Potency, µM, inactives show max response, negative = inhibition, usual class: inhibitors. 2.3% of 200,000 active. AID 1476;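 also: plate controls were enzyme without inhibitor for no effect and buffer without enzyme for full effect; nearly all actives have a fitted effect of over 40% in size; top concentration of the series not given in the record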
#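 Purified cruzain at 1.5 nM, pre-incubated 15 min with compound at room temperature in 100 mM sodium acetate pH 5.5, 5 mM DTT, 0.00005% Triton X-100. Reaction started with 2 uM Z-FR-AMC; AMC fluorescence increase over 60 s gives rate.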
# * hit, by the source's call; u = inconclusive; x = not tested or not shown; [ ] = remark or other dose. Unless noted, calls follow the shape of the dose curve; as a rule, active = well fitted curve in the direction sought with a large enough effect; inconclusive = small, poorly fitted or top-dose-only effect, or another doubt; inactive = no such curve, though single readings can be large; an effect the other way counts as inactive or inconclusive. Potency is read from the fitted curve at half-maximal effect. Rows are unselected (roughly 4.7% active in at least one column).
canonical_smiles	2A StopGo	SARS PLP yeast	RE007 growth inh	Lassa entry inh	MARV entry inh	Cruzain inh Det	NS1 inh	Cruzain inh noDet
Cc1ccc(CNC(=O)C(=O)NCC(c2cccnc2)N2CCN(c3ccc(F)cc3)CC2)cc1 (stereo unspecified)	u	x	x	9%[46.1 µM]	x	-0.7%	x	1%
CCOC(=O)C1CCN(S(=O)(=O)c2cc(C(=O)OC)n(C)c2)CC1	-24%	3%	-15%	x	x	x	-3%	x
COC(=O)c1ccc(Cl)c(NS(=O)(=O)c2ccc3c(c2)OCCO3)c1	16%	-2%	1%	4%	u	-3.6%	-41%	0%
NC(=O)c1c(NC(=O)c2cnccn2)sc2c1CCCC2	0%	0%	-13%	6%	x	x	x	x
CCOC(=O)c1c(C)[nH]c(C(=O)OC(C)C(=O)NCc2ccccc2)c1C (stereo unspecified)	-14%	x	8%	u	9%	x	x	x
C(=N\NC(=Nc1ccccc1)c1ccccn1)/c1ccccn1	5%	u	-9%	u	u	-4.7%	-9%	-5%
N/C(Cc1ccc(Cl)cc1)=N\OC(=O)c1cccc2ccccc12	u	-58%	u	12µM*	u	-2.5%	-196%	0%
CCOc1ccccc1CN1CCC(O)CC1	13%	9%[6.58 µM]	13%	9%	14%	1.6%	1%	2%
O=C1COc2ccc(C(=O)COC(=O)c3ccc(Cl)cc3[N+](=O)[O-])cc2N1	u	0%	4%	30%	-13%	x	x	x
COc1ccc(CCNC(=O)CCCn2c(=O)c3ccccc3n(Cc3ccc(F)cc3Cl)c2=O)cc1OC	-5%	x	x	2%[46.1 µM]	2%[46.1 µM]	7.9%	x	13%
CCOC(=O)C(C(=O)OCC)c1cc(Br)c2noc3c2c1C(=O)c1ccccc1-3	25µM*	-17%	u	11µM*	u	-16%	-92%	8%
Cc1cc(C(=O)Cn2nc(C(=O)O)c3ccccc3c2=O)c(C)n1CCc1ccc(Cl)cc1	-24%	0%	21%	x	x	x	4%	x
CCN1C(=O)C(=O)N(CC(=O)N2CCN(c3ccccc3)CC2)C1=O	-7%	-2%	3%	-4%	-5%[46.1 µM]	x	x	x
Nc1ccccc1N1CCN(C(=O)c2ccccc2)CC1	-10%	-15%	-8%	2%	-13%	0.9%	5%	-3%
Cc1cccc(NC(=O)CCCSc2nc3ccccc3[nH]2)c1	u	6%	2%	-1%	-3%[46.1 µM]	-5.1%	3%	-1%
O=C1N=C(N2CCC(Cc3ccccc3)CC2)S/C1=C/c1cn[nH]c1-c1ccccc1	u	5%	1%	u	10µM*	-4.0%	18%	u
CCc1ccc2[nH]c3nc(SCCN4CCOCC4)nnc3c2c1	u	12%	16%	x	x	x	-3%	x
O=C1NC2(CCCCCC2)C(=O)N1Cc1c(F)cccc1Cl	-10%	-5%	-4%	x	x	x	-1%	x
COc1cccc(NC(=O)CN(C)C(=O)CCCNC(=O)c2ccc(Cl)cc2)c1	32%[activator]	-1%	5%	-3%	u	x	x	x
CC(=O)c1ccc(NC(=O)c2cnc(N3CCCC3)nc2C)cc1	u	x	x	-23%[46.1 µM]	x	-5.4%	x	-10%
Clc1ccccc1Nc1nc(-c2ccncc2)nc2ccccc12	u	-6%	-1%	x	x	x	-6%	x
CC(CCc1ccccc1)NC(=O)COC(=O)C1CCC(C(C)(C)C)CC1 (stereo unspecified)	-16%	-26%	-9%	-3%	u	-7.3%	-9%	19%
Cc1cc(N/N=C/c2ccc(F)cc2)nc(NCc2ccccc2)n1	-18%	-2%	-21%	u	u	x	-45%	x
O=C1C=C(N2CCCCC2)C2(CCCCC2)O1	7%	0%	6%	x	x	x	5%	x
COc1ccc(OC)c(NS(=O)(=O)c2ccc(N3CCCC3=O)cc2)c1	-16%	2%	12%	x	u	-1.5%	4%	7%
Cc1nc(SCC(=O)NC2CCCC2)[nH]c(=O)c1Cc1ccccc1	x	11%	9%	-30%	24%	0.8%	12%	13%
O=C(CSc1ncn[nH]1)c1ccc2c(c1)OCO2	29%	0%	-5%	14%	u	1.6%	-7%	-6%
CC(=O)Nc1ccc(NC(=O)CSc2nnc(CNc3ccc(F)cc3)n2CC2CCCO2)cc1 (stereo unspecified)	0%	1%	20%	x	20%[46.1 µM]	x	x	x
COc1ccc(CCNC(=O)CCCN2C(=O)c3ccccc3C2=O)cc1OC	x	7%	0%	0%	6%	-0.5%	6%	-3%
CCCSc1nc2c(c(=O)n1-c1ccc(OCC)cc1)SCC2	-2%	4%	17%	-11%	1%	1.4%	3%	u
CN(CC(=O)Nc1ccc(F)cc1)C(=O)Cn1cnc2ccc([N+](=O)[O-])cc2c1=O	-24%	3%	-8%	4%	-18%	x	x	x
NS(=O)(=O)c1ccc(CCNC(=O)C2CCCN2S(=O)(=O)c2cccc3nsnc23)cc1 (stereo unspecified)	-16%	-4%	-1%	14%[46.1 µM]	-1%[46.1 µM]	x	10%	x
CCCCn1c(CN2CCN(CCO)CC2)nc2ccccc21	-18%	1%	3%	6%	3%	0.1%	-5%	4%
Cc1ccc(CN2CCN(c3ncccn3)CC2)o1	18%	3%	-6%	26%	18%	0.9%	-9%	-4%
COc1ccc2[nH]c(=O)c(CN(C(=O)C3CCCO3)c3ccc(C)c(C)c3)cc2c1 (stereo unspecified)	-17%	1%	5%	u	u	x	0%	x
Nc1c(C(=O)N/N=C/c2ccccc2)cnn1-c1ccccc1	37%[activator]	-3%	6%	x	x	x	3%	x
CCOC(=O)c1c(NC(=O)Cn2nc(C(F)(F)F)cc2C)sc2c1CCC2	-9%	19%	u	5%	4%	-10%	15%	8%
CCn1nnnc1SCC(=O)N1CCN(Cc2ccc3c(c2)OCCO3)CC1	-3%	-5%	-16%	4%	14%	x	x	x
C=CCn1c(CNS(=O)(=O)c2ccc(F)cc2)n[nH]c1=S	9%	3%	-5%	8%[46.1 µM]	6%[46.1 µM]	x	13%	x
COc1ccc(CCC(C)N2CCOCC2)cc1 (stereo unspecified)	3%	-8%	14%	0%[46.1 µM]	-6%[46.1 µM]	x	6%	x
CC(=O)c1c(Nc2cccc(F)c2)oc(C)cc1=O	-11%	-1%	-5%	x	x	x	-4%	x
COc1cccc(NC(=O)CN(C)C(=O)Cc2ccc3c(c2)OCCO3)c1	11%	2%	-1%	16%	-10%	x	x	x
Cc1cccc(C)c1OCC(=O)OCC(=O)c1ccc2c(c1)NC(=O)CO2	-2%	-3%	2%	11%	12%	-1.4%	-22%	2%
CCCc1cc(=O)n2[nH]c(NCc3ccc(CC)cc3)nc2n1	12%	x	x	26%[46.1 µM]	6%[46.1 µM]	-2.5%	x	-8%
COc1ccc(S(=O)(=O)N(C)CC(=O)NCc2ccco2)cc1Cl	-8%	4%	4%	x	x	x	-5%	x
COc1ccc(Br)cc1CN(C)CC(=O)NCCc1ccccc1	-19%	-12%	-7%	3%	-25%[46.1 µM]	x	25%	x
O=C(O)CSc1nc2ccc(C(=O)c3ccccc3)cc2[nH]1	-13%	4%	0%	5%	0%	x	11%	x
CC(=O)c1ccc(N2CCN(C(=O)Nc3ccc(F)cc3F)CC2)cc1	-10%	-9%	-6%	5%[46.1 µM]	u	x	x	x
CC(CN1CCCCC1)OC(=O)C(C)(c1ccccc1)c1ccccc1 (stereo unspecified)	u	-14%	-8%	u	u	4.5%	-5%	-8%
NC(=O)c1ccc(NC(=O)CCC(=O)c2cccs2)cc1	34%[activator]	9%	6%	-14%	0%[46.1 µM]	x	14%	x
O=C(CCCNS(=O)(=O)c1cccc2nsnc12)NCc1ccc(F)cc1	0%	6%	-5%	11%	3%	-5.1%	8%	-7%
COC(=O)[C@@H]1C2CCC(C(=O)Nc3ccccc3)(CC2)[C@@H]1C(=O)OC	-16%	1%	-5%	9%	32%	-2.5%	1%	2%
COc1ccc(NC2=NCC(C)S2)cc1 (stereo unspecified)	16%	-1%	-13%	4%	-23%[46.1 µM]	x	1%	x
C=CCN=c1scc(-c2ccc3c(c2)NC(=O)CO3)n1/N=C(\C)c1ccccn1	18µM*	4%	6%	u	u	x	x	x
CC(=O)c1cc(-c2ccccc2)n(CC(=O)Nc2ccc(C)cc2C)c1C	9%	x	x	3%[46.1 µM]	x	0.7%	x	-9%
Cc1ccc(NS(=O)(=O)c2cc(-c3cc(C)no3)ccc2C)c(Cl)c1	45%[activator]	x	x	-13%[46.1 µM]	x	-3.5%	x	4%
COc1cccc(C(=O)Nc2cccnc2)c1OC	31%[activator]	-1%	-14%	14%[46.1 µM]	3%[46.1 µM]	x	-3%	x
Cc1cc(C)cc(NC(=O)Cn2cnc3c(nnn3Cc3ccc(F)cc3)c2=O)c1	-23%	0%	18%	x	x	x	-6%	x
COCCCN1CC(=O)N2Cc3[nH]c4ccccc4c3C[C@H]2C1=O	-5%	0%	-7%	x	x	x	7%	x
CCC(C)Nc1nc(OC)nc(N(C)C#N)n1 (stereo unspecified)	-2%	7%	8%	-4%	9%	-0.7%	12%	-1%

# (listing goes on)
canonical_smiles	2A StopGo	SARS PLP yeast	RE007 growth inh	Lassa entry inh	MARV entry inh	Cruzain inh Det	NS1 inh	Cruzain inh noDet
COc1cccc2cc(-c3nc(Cl)c4c5c(sc4n3)CC(C)CC5)c(=O)oc12 (stereo unspecified)	12%	x	x	u	-10%[46.1 µM]	-0.1%	x	-9%
COc1cccc(-n2c(SCC(=O)NCc3ccco3)nnc2-c2c[nH]c3ccccc23)c1	-4%	5%	-3%	x	-2%	-3.3%	7%	-14%
Cc1ccc2c(C)c(C(=O)NCc3ccc(S(N)(=O)=O)cc3)oc2c1C	-16%	0%	3%	-30%	-11%[46.1 µM]	x	10%	x
CC1(C)NC(=O)N(CCCCSc2ccc(Cl)cc2)C1=O	0%	-2%	1%	-5%	12%	-2.7%	-15%	2%
O=C(COC(=O)C1COc2ccccc2O1)Nc1ccc2c(c1)CCC2 (stereo unspecified)	-11%	-8%	-20%	16%	1%	-1.2%	-82%	-9%
O=C(O)CSc1ccc2ccccc2n1	-4%	-3%	-2%	-12%	u	-0.3%	-24%	-14%
